# High-throughput results: PubChem, ICCB-Longwood Screening Facility, Harvard Medical School
# AID504770: growth inhibitors of E. coli YBA685 in a screen for V. cholerae RctB (chromosome II replication) inhibitors | hit rate 0.27% among 130,000 | E. coli YBA685 rctB-dependent plasmid, OD600 growth, 3 h; stronger effect = lower value | z-score (concentration not given with the values);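 active = z-score under -2 on both plates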;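 note: wells of about 30 µL received 100 nL stock; score is relative to mean and SD of the test wells; the first replicate is given; strong numbers were not always called active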
# Ba CapD inh: inhibitors of Bacillus anthracis CapD enzyme. purified CapD enzyme, fluorescence intensity read-out; stronger effect = lower value; some hits fall short of the stated cut. z-score (no concentration beside the values). hit rate 0.23% among 140,000;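 active = z-score under -4 in either of two replicates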;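 note: stock transfer was 100 nL into about 40 µL; score is relative to mean and spread of the plate; one replicate is shown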
# The depositor's hits bear a star; / = no result given; & = joins results of further samples. This is a subset. The share of hits here may be higher or lower than overall.
SMILES,AID504770,Ba CapD inh
CCN(CC)c1ncccc1C(=O)NCC1CCCO1 (stereo not given),-0.8,/
O=C(NCCC(=O)N1CCN(C(=O)c2ccco2)CC1)c1ccccc1Cl,-0.85,/
O=S(=O)(c1ccccc1)c1ncc(C(F)(F)F)cc1O,-0.45,32
CCc1ccc(NC(=O)CSC2=C(C#N)C(c3ccc(C)o3)C3=C(CCCC3=O)N2)cc1 (stereo not given),/,1
CC(Oc1ccccc1)C(=O)OCc1nc2ccsc2c(=O)[nH]1 (stereo not given),-0.4,/
CCCn1c(SC(C)C(=O)c2ccc(Cl)cc2)n[nH]c1=O (stereo not given),-0.4,/
CCOC(=O)c1cc2c(ccn2C)n1CC(=O)N1CCCC(C)C1 (stereo not given),0.3,/
Cc1[nH]c(=O)[nH]c(=O)c1NCCO,-0.7,-0.35
CS(=O)(=O)c1ccc(Cl)cc1,/,0.21
CSC(SC)=C(C#N)C#N,/,-2.5
O=C(CSC1=NCCS1)Nc1cc(Cl)ccc1N1CCOCC1,0,/
COc1ccc(CSc2nccc(-c3ccc(Cl)cc3)c2C#N)cc1,/,-0.14
N#CSC1CC(=O)N(c2ccc(F)cc2)C1=O (stereo not given),-1.8,/
c1ccc(NC2=Nc3ccccc3CS2)cc1,-0.1,-0.46
CC(C)c1cccc(C(C)C)c1NC(=O)C(C)(C)C,-0.65,-0.14
Cc1ccc(-c2nc3cc(C(F)(F)F)cc(Br)c3nc2-c2ccc(C)cc2)cc1,/,0.77
O=C(O)COc1cc(O)c2c(=O)c(-c3ccc4c(c3)OCCO4)coc2c1,0.9,/
CCOc1ccccc1NC(=O)Oc1ccc(F)cc1Cl,-1.1,0.31
Cn1c(NN)nc2ccccc2c1=O,-0.35,/
S=C(Nc1ccccc1)N1CCOCC1,-1.1,/

# Single values from the list.
# `S=C(Nc1ccccc1)N1CCOCC1` in AID504770: -1.1
# `CC(C)c1cccc(C(C)C)c1NC(=O)C(C)(C)C` in AID504770: -0.65
# `c1ccc(NC2=Nc3ccccc3CS2)cc1` in AID504770: -0.1

# (more compounds)
SMILES,AID504770,Ba CapD inh
COC(CN(C)S(=O)(=O)c1ccc(N2CCCCS2(=O)=O)cc1)OC,-1.2,0.66
O=C(O)C1C2C=CC(C2)C1C(=O)NCCN1CCOCC1 (stereo not given),0.55,/
NC(=O)C1CCN(C(=O)c2cccc(Cl)c2)CC1,-0.05,5.8
CC(=O)N(c1ccccc1)c1nc(C)cc(C)c1C#N,-0.9,0.11
Cc1ccc(C2=CSC3=C(C(=O)c4ccc(S(=O)(=O)N(C)C)cc4)CCN23)cc1,-0.85,/
CCCCn1c(-c2cc3c(s2)CCC3)nc2cc(S(N)(=O)=O)ccc21,-0.35,/
Cc1ccccc1OCCN1C(=O)NC(CC(C)C)C1=O (stereo not given),0.35,/
O=C(OCc1nccn1Cc1ccccc1)N1CCc2c([nH]c3ccccc23)C1,/,0.95
O=C1/C(=C\c2cccs2)SC(=S)N1CCC(=O)N1c2ccccc2Sc2ccccc21,/,0.14
CCn1c(NCc2cccs2)nc2ccccc21,-0.6,0.12
O=C1CCC(=O)N1OCC(=O)N(c1ccccc1)c1ccccc1,0.05,0.75
CCN(CC)CCn1c(SCC(=O)NCc2ccccc2)nc2c(sc3ccccc32)c1=O,1.4,3.2
Cc1ccccc1Nc1nc(N)nc(CSc2nc3scc(-c4cccs4)c3c(=O)[nH]2)n1,1.6,/
CC(C)n1c(-c2ccncc2)n[nH]c1=S,-0.45,0.17
Cc1noc(C)c1COC(=O)c1cc2c3ccccc3n(C)c2s1,1.7,/
Cc1ccc2c(c1)c1c(n2C)C(C#N)CCC1 (stereo not given),-0.7,-0.14
O=C(O)c1cc(C(=O)O)cc(-c2ccc(C=Nc3ccc4[nH]c(=O)[nH]c4c3)o2)c1,0.7,20
CN1C(=O)C(C(=O)Nc2ccccc2)C2CC1(C)Oc1ccccc12 (stereo not given),-0.4,0.38
COc1cccc(C(=O)NC(Cc2ccccc2)c2nc3ccccc3[nH]2)c1 (stereo not given),/,-0.3
O=C1CC(NC2CCN(c3ncccn3)CC2)C(=O)N1c1ccc(F)cc1 (stereo not given),-0.3,5.9
CCc1cc2cc3c(cc2nc1SCC(=O)N1CCCCC1)OCO3,1,/
CNCc1cc2ccccc2s1,-1,0.19
Cc1cc(C2=Nn3cc(-c4ccccc4)nc3SC2)c(C)n1CC1CCCO1 (stereo not given),0.2,/
Cc1sc2ncnc(SCC(N)=O)c2c1C,1.6,/
Cn1cc(C(=O)c2cccc(Cl)c2Cl)cc1C(=O)C(Cl)(Cl)Cl,/,-0.31
O=C(O)CN1C(=O)/C(=C\c2ccc(-c3ccc(Cl)c([N+](=O)[O-])c3)o2)SC1=S,/,-0.43
CN(C)c1ccc(NC(=O)C2CC3CCCC(C2)C3=O)cc1 (stereo not given),0.1,/
Clc1cccc(C2Nc3cccc4cccc(c34)N2)c1Cl,/,-0.14
NCc1ccc2cc[nH]c(=O)c2c1,-0.25,0.73
O=C1NCCCCC1NS(=O)(=O)c1cccc(C(F)(F)F)c1 (stereo not given),0.55,0.45
O=C(COc1ncn(-c2ccccc2)n1)N/N=C/c1cc(Br)cc([N+](=O)[O-])c1O,/,-1.6
COC(CNC(=S)c1ccc(NC(C)=O)cc1)OC,-0.3,/
N#Cc1nc(-c2ccccc2F)oc1NCCN1CCOCC1,0.6,43
CC(C)=CC(=O)Nc1cc(Cl)ccc1C,-0.95,0.45
CCNC(=O)N1CCN(c2nc(C)cc(C)n2)CC1,/,-0.58
Cn1c(=S)[nH]c2ccccc2c1=O,0.15,/
COc1ccc(S(=O)(=O)N(C)Cc2ccccc2)cc1OC,-0.05,0.38
CCOc1ccc2c3c(c(=O)oc2c1C)CCC3,1.4,-0.54
Cc1nc(-c2ccc(C(=O)O)cc2)cs1,1.9,/
CSc1cc(C(F)(F)F)c(C(=O)Nc2c(C)cccc2C)cn1,-0.2,0.78
CCc1nc2ccc(C(=O)NCCc3cnc[nH]3)cc2nc1CC,-0.25,-1.9
CC1(C)CC(=O)C2=C(C1)NC1=C(C(=O)c3ccccc31)C2c1cccc(OC(=O)c2ccccc2F)c1 (stereo not given),/,-0.23
COc1ccc(S(=O)(=O)N(CCC#N)Cc2ccccc2)cc1OC,-0.7,-0.37
COc1ccc(C(=O)COC(=O)Cn2c(C)csc2=O)c(OC)c1,-0.25,/
O=C(OCc1ccccc1Cl)c1ccco1,1.1,-0.4
FC(F)(F)c1cc(-c2cccs2)n(-c2ccccc2)n1,/,-0.28
CCc1ccc(C2C(C(=O)c3ccco3)=C(O)C(=O)N2CC2CCCO2)cc1 (stereo not given),-0.9,-2.2
CCOc1ccc(Nc2nc(C3(C)CC4(CC(C)(C)OC4=O)C(=O)O3)cs2)cc1 (stereo not given),-0.55,1.6
S=C(NCCN1CCOCC1)NCc1ccco1,-0.2,/
Cc1cc2n(n1)CCCN2CC(=O)NCCc1ccc(S(N)(=O)=O)cc1,0.3,0.15

# Record cards, from the list above:
# Record of O=C(OCc1ccccc1Cl)c1ccco1 : AID504770: 1.1; Ba CapD inh: -0.4
# Record of CCOc1ccc(Nc2nc(C3(C)CC4(CC(C)(C)OC4=O)C(=O)O3)cs2)cc1 (stereo not given) : AID504770: -0.55; Ba CapD inh: 1.6
# Record of CCc1ccc(C2C(C(=O)c3ccco3)=C(O)C(=O)N2CC2CCCO2)cc1 (stereo not given) : AID504770: -0.9; Ba CapD inh: -2.2

# Going on with the list:
SMILES,AID504770,Ba CapD inh
O=C(c1ccc(S(=O)(=O)N2CCCCCC2)cc1)N1CCC(CN2C(=O)c3cccc4cccc(c34)C2=O)CC1,/,14
COc1cccc(NC(=O)CCn2nc(-c3ccccc3OC)c3c(C)cc(C)nc32)c1,0.2,-0.24
Cc1ccc(S(=O)(=O)N2C3C=CC(C3)C2C(=O)O)cc1 (stereo not given),0.15,0.21
CC(C)C(=O)Nc1nc(-c2ccccc2)cs1,0.35,0.76
CC(=Nc1ccccc1)C1=C(O)CSC1=O,-0.8&0.45,-1.5
O=S(=O)(c1ccc(Cl)c(Cl)c1Cl)n1nnc2ccccc21,/,-0.095
CN(Cc1ccccc1)C(=O)Cn1cc(Br)ccc1=O,0.55,/
Cc1c(N=Cc2ccc3c(c2)OCCO3)c(=O)n(-c2ccccc2)n1C,/,0.26
CC1=C(C(=O)Nc2ccc(C)cc2)C2(CCCCCC2)OC1=O,-0.45,0.56
COc1ccc(CC(=O)N2CCc3ccccc32)cc1,-0.6,-0.41

# Of the compounds above, 8 have a cyano group.
SMILES,AID504770,Ba CapD inh
CCc1ccc(NC(=O)CSC2=C(C#N)C(c3ccc(C)o3)C3=C(CCCC3=O)N2)cc1 (stereo not given),/,1
CSC(SC)=C(C#N)C#N,/,-2.5
COc1ccc(CSc2nccc(-c3ccc(Cl)cc3)c2C#N)cc1,/,-0.14
N#CSC1CC(=O)N(c2ccc(F)cc2)C1=O (stereo not given),-1.8,/
CC(=O)N(c1ccccc1)c1nc(C)cc(C)c1C#N,-0.9,0.11
Cc1ccc2c(c1)c1c(n2C)C(C#N)CCC1 (stereo not given),-0.7,-0.14
N#Cc1nc(-c2ccccc2F)oc1NCCN1CCOCC1,0.6,43
COc1ccc(S(=O)(=O)N(CCC#N)Cc2ccccc2)cc1OC,-0.7,-0.37

# Other records:
SMILES,AID504770,Ba CapD inh
CCn1c(C(C)C)n[nH]c1=S,0.15,/
FC(F)(F)c1cccc(CSc2ncnc3c2oc2ccccc23)c1,0.75,/
Cc1no[n+]([O-])c1COc1ccccc1/C=C1\NC(=S)NC1=O,0.4,/
N#CC1=C(N)Oc2ccc3ccccc3c2C1c1ccccc1 (stereo not given),-0.6,-0.005
O=C(Nc1cccc(F)c1)NC1(C(=O)NCC2CCCO2)CCCCC1 (stereo not given),-1.1,/
CCn1c(SCc2nc(-c3ccccc3)no2)nc2ccccc21,-1.7,-0.62
O=C(O)CCc1nc2cc(Cl)ccc2oc1=O,-0.5,/
O=C(c1cn(-c2ccccc2)nc1-c1cccnc1)N1CCCCC1,-0.6,/
CC(C)(C)N1CNC(=S)NC1,/,-0.2
N=C1S/C(=C/c2ccc(-c3ccccc3[N+](=O)[O-])o2)C(=O)N1c1nonc1N,/,-1.5
COC(=O)c1ccc(COC(=O)Cc2coc3cc4c(cc23)CCC4)o1,0,/
COC(=O)NCCc1ccc(OC)cc1,2,-1.1
CCOc1ccc(NC(=O)C2CC(=O)N(CCCN3CC(C(=O)Nc4ccc(OCC)cc4)CC3=O)C2)cc1 (stereo not given),-0.45,0.055
COc1ccc2[nH]c3c(c2c1)CC(C)NC3=O (stereo not given),0.85,44
N#Cc1ccccc1S(=O)(=O)NCC(=O)NC1CCCc2ccccc21 (stereo not given),-1.3,/
C#CCN=Cc1c(O)n(CC)c(=S)n(CC)c1=O,-2,/
CC(C)CCN1NC2(CCCCC2)NC1=S,-0.2,0.68
CCc1oc(C(=O)O)cc1CN,0.8,/
CC1(C)Cc2c(sc3nc(N4N=N4)nc(NCCO)c23)CO1,0.6,58
CC(C)Sc1nc2ccccc2n1CC(=O)N1c2ccccc2CC1C (stereo not given),-0.1,/
Nc1c(C(=O)C2CC2)oc2ccc(Br)cc12,/,41
FC(F)(F)c1cccc(OCCCn2cncn2)c1,1.9,-0.86
COC(=O)c1ccc(C(=O)O)nc1,-0.65,-0.63
COc1ccc(C2C3=C(CCCC3=O)NC3=C2C(=O)c2ccccc23)cc1 (stereo not given),/,-2.1
O=C(Cn1cnc2ccccc2c1=O)Nc1ccc(S(=O)(=O)Nc2nccs2)cc1,-0.8,/
COc1cc(Br)c(CN2CCCC(COC(=O)NCc3csc4ccccc34)C2)cc1OC (stereo not given),/,-0.71
CC(=O)Nc1ccc(C2=NNC(=NC(C)C)SC2)cc1,-0.25,/
CCNC(=O)c1ccc2c(c1)sc1nc(-c3ccc(CC)cc3)cn12,0.9,3.7
Cc1nn(-c2ccc(F)cc2)c(-n2cccc2)c1C(=O)N(C)Cc1ccccc1,-0.9,-1.1
N#Cc1cc2c(nc1SCC(=O)NCCc1ccccc1)CCCCC2,/,0.19
Fc1ccc(-c2noc(COc3ncnc4ccccc34)n2)cc1,-1.2,/
COc1cccc(C(=O)NCCN2CCOCC2)c1,1.2,-0.66
CCn1cnc2sc(C(=O)N3CCCc4ccccc43)c(C)c2c1=O,/,0.34
CCN(CC)CC(O)COc1ccc(OCc2ccccc2)cc1 (stereo not given),0.5,/
O=C(CSCc1cccc2ccccc12)NNC(=O)c1ccc(F)cc1,/,-0.4
Cn1c(C(O)c2ccccc2)nc2ccccc21 (stereo not given),-1.1,-0.83
COc1ccc(NC(=O)c2sc(=S)[nH]c2N)cc1,-0.65,-2.8
CCCCn1c(CNC(=O)c2ccccc2F)nnc1SC(C)C(=O)Nc1sc(C(=O)OCC)c(C)c1C(=O)OCC (stereo not given),/,-0.015
Cn1c(CNC(=O)Cc2ccccc2)nc2ccccc21,-0.7,0.2
COc1ccc(OC)c(NC(=O)CN2C(=O)c3ccccc3S2(=O)=O)c1,/,-0.14
COC(=O)c1sc(N)c(C(=O)OC)c1COC(=O)CN1CCCCCC1=O,-0.35,/
Cc1ccc(S(=O)(=O)N(C)c2nc3ccccc3nc2Cl)cc1,-0.45,/
O=C(CSc1ncccn1)N1N=C(c2ccc(Cl)cc2)CC1c1ccco1 (stereo not given),0.25,/
COc1ccc(C(=O)CN2CCN(c3cc(C)nc4ccccc34)CC2)cc1,/,0.32
Cc1onc(-c2ccccc2)c1C(=O)OCC(=O)c1ccc(Cl)cc1,/,-0.24
C/C(=N/NC(=O)Cc1cccs1)c1ccc(C)cc1,0.2,/
Cn1nc(OCC(=O)NC(C)(C)C)cc1C(F)(F)F,-0.25,-0.24
Cc1c(Cl)cccc1NC(=O)N1CC(C)Sc2ccccc21 (stereo not given),-0.4,-0.11
CCCCn1c(C(C)O)nc2ccccc21 (stereo not given),-1,-0.24
O=C(NNc1cccc2ccccc12)C(O)(c1ccccc1)c1ccccc1,/,-0.43
